Assay outcomes as filed in PubChem BioAssay.
T cruzi repl: blocks replication of Trypanosoma cruzi | inhibition, % (concentration not given with the values) | 1.4% of 300,000 active | T. cruzi beta-gal in NIH3T3, luminescence, 90 h;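 active = mean inhibition across valid replicates above about 55%, limit read from the data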;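 note: signal also drops with host cell toxicity which is not excluded here; 0% = plate median of DMSO wells and 100% = zero luminescence signal; higher percent means less beta-gal luminescence so fewer parasites; stock transfer was 50 nL into about 50 µL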
UCH37 DUB inh: inhibitors of human deubiquitinating enzyme UCH37. Q9Y5K5. purified proteasome/UCH37, Ub-AMC cleavage fluorescence. inhibition, % (concentration not given with the values). 0.33% of 330,000 active. AID 588478;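 active = mean of two replicates above 20%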;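 note: 0% = compound-free wells with enzyme and 100% = wells lacking proteasome; stock transfer was 100 nL into about 20 µL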
Target sequence (Q9Y5K5 whole entry, looked up): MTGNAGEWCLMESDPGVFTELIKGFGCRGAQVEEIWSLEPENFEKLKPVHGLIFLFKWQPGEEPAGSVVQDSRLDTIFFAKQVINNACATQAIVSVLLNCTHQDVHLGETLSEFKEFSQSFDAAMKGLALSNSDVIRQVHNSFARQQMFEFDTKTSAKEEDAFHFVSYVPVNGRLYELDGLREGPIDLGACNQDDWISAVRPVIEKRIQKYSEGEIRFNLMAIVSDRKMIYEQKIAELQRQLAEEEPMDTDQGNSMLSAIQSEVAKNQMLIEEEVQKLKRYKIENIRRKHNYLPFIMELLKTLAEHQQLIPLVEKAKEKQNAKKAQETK
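Schedule: 30 min plus 25 min, room temperature / Material: human UCH37 within purified proteasomes / Technique: AMC fluorescence intensity at 355/460 nm / Buffer or medium: pH 7.4 Tris-HCl (50 mM) with ovalbumin, ATP-MgCl2, DTT / Controls: wells without proteasome as full block, compound-free enzyme plus substrate as uninhibited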
Beta cell apopt: blocks beta cell apoptosis. protection from apoptosis, % (test concentration not listed). 0.8% of 300,000 active. INS-1E cytokine-induced death, ATP luminescence, 48 h; percent of positive-control rescue, neutral wells zero. AID 435005;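 active = all replicates at 75% or more, or half of them and the mean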;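 note: 0% = cytokine-treated negative control wells and 100% = positive control rescue; higher means more ATP so stronger rescue from cytokine killing; wells of about 40 µL received 100 nL stock; the first replicate is given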
A1 inh: inhibitors of the anti-apoptotic protein A1, read as caspase activation; MEF A1-2A-BIM cells, Caspase-Glo 3/7 luminescence, 3 h; percent of clofoctol response, vehicle zero; caspase activation, % (no concentration beside the values); 0.066% of 330,000 active; AID 2462;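 active = over half of replicate activation scores above 10%, or exactly half above 10 with the replicate mean above 10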;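 note: wells of about 30 µL received 50 nL stock; many hits fall short of the cut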
E coli growth: inhibitors of Escherichia coli growth. OD600, 23 h; hits give low values. OD600 absorbance (no concentration beside the values). 0.21% of 330,000 active;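 active = OD600 absorbance below the run mean of sample wells minus 3.6 SD, in any replicate, cut at about 0.56 in these data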;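 note: stock transfer was 300 nL into about 60 µL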
AF4-AF9 inh: inhibitors of human MLL-AF4/AF9 interaction | AlphaScreen, biotin-AF4 peptide binding to FLAG-AF9 | inhibition, % at 10 µM | 0.47% of 350,000 active | P42568;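 active = every replicate reaching a set inhibition limit, whatever the replicate mean, cut at about 25% in these data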;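 note: 0% = plate neutral control median and 100% = total signal loss; the record names both 10 and 1 µM as test concentration; the first replicate is given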
Target sequence (P42568 whole entry, looked up): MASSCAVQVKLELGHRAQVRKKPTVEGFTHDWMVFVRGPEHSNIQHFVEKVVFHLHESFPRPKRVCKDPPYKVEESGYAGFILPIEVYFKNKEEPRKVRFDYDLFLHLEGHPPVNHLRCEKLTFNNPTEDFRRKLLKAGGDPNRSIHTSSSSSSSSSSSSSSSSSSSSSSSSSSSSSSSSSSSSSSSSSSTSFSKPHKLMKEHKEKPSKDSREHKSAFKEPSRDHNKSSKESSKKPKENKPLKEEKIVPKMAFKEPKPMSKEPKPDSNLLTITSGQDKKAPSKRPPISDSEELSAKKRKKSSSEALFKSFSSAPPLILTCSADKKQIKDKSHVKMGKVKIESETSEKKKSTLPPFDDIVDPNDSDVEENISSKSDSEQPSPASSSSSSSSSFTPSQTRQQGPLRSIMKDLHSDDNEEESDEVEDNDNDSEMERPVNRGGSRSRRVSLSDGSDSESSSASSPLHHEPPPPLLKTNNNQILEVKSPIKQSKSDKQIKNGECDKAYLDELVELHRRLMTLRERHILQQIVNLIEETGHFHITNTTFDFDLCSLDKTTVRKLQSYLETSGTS
FGF22 binding: binders of recombinant human FGF22 by thermal shift | Q9HCT0 | SYPRO orange fluorescence; percent of sucrose octasulfate shift, DMSO zero | calls only at 9.99 µM | 1.5% of 340,000 active | AID 651658;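 active = melting point raised past a set limit in the mean and every replicate; three in four hits are not shown here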
Target sequence (Q9HCT0 whole entry, looked up): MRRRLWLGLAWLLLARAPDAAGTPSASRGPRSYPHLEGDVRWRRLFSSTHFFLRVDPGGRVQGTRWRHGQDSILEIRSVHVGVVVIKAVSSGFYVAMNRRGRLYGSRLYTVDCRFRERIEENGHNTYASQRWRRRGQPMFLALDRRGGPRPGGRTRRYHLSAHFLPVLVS
Ecoli rRNA inh: selective bacterial rRNA inhibition in E. coli; 1.6% of 350,000 active; AID 720706; GFP signal change (wild-type ribosome), % (concentration not given with the values); E. coli WT GFP vs humanized-ribosome RFP mutants, fluorescence, 24 h; hits give low values; DMSO median 0, no signal -100;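 active = significant combined selectivity score with lowered wild-type GFP, culture density cut under 30%, mutant RFP and density less affected; inactive = any of these conditions unmet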; note: one replicate is shown; some compounds called inactive have numbers as strong as hits
Ecoli rRNA inh OD600: recorded beside Ecoli rRNA inh, whose call it bears; OD600 change, %; measured here: OD600 growth;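 optical density of the mix in the first replicate; 0 = DMSO median and -100 = no signal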
Ecoli rRNA inh RFP: further read-out of Ecoli rRNA inh, marked with its call; RFP signal change, %; measured here: RFP humanized mutant strains;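 first replicate; 0 = DMSO median and -100 = no signal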
Active calls of the source: *; i = inactive; . = not tested or not shown.

entry	Molecule	FGF22 binding	A1 inh	UCH37 DUB inh	Beta cell apopt	AF4-AF9 inh	T cruzi repl	Ecoli rRNA inh OD600	Ecoli rRNA inh	E coli growth	Ecoli rRNA inh RFP
1	O=C(Cc1c(Cl)cccc1Cl)N/N=C/c1cccnc1	i	-0.1	.	-3	-6.7	.	0	-2	.	-2.0
2	CCCc1cc(NCCN(C)C)n2c(nc3ccccc32)c1C#N	i	0.1	i	11	-8.7	53	0	-3	0.68	2.8
3	CC(C)c1ccccc1NS(=O)(=O)c1cccs1	i	0.1	0.4	-6	-0.9	-5	2	4	0.69	2.0
4	COc1ccc(-c2cccc3c2NC(=O)C3=O)cc1OC	i	.	-0.6	.	1.5	.	9	10	.	-0.1
5	O=C(O)CC(Cc1ccc(Br)cc1)C(=O)Nc1ccccc1 (centres undefined)	i	-0.4	2.7	-1	-0.3	1	-8	-12	0.71	-0.7
6	Cc1ccc(Nc2nc3nonc3[nH]c2=O)cc1	.	-3.8	11	1	.	2	.	.	0.65	.
7	COCCCn1c(=O)c2ccccc2n(Cc2ccc(C)cc2)c1=O	i	0.5	3.5	.	-2.7	4	1	0	0.7	0.9
8	CC(NS(C)(=O)=O)C(c1cccs1)N1CCN(c2ccccc2)CC1 (centres undefined)	.	0.1	0.2	-1	.	0	.	.	0.66	.
9	O=C(c1ccco1)N1CCN(C(c2ccc(Cl)cc2)c2nnnn2Cc2ccccc2)CC1 (centres undefined)	.	1.7	5.2	5	.	-5	.	.	0.69	.
10	Cc1ccc(NC(=O)CSc2ncccc2C(=O)Oc2cccc([N+](=O)[O-])c2)cc1Cl	i	0.0	1.9	15	-7.2	-6	.	.	0.72	.
11	Cc1ccc(OCc2cc(C(=O)N(C)CCc3nc4ccccc4[nH]3)no2)cc1C	i	.	-1.3	.	1.0	11	-37	-29	0.64	-0.7
12	Cc1ccc2nc(/C(C#N)=C/c3cn[nH]c3-c3ccc(F)cc3)[nH]c2c1	.	-2.8	-6.0	7	.	21	.	.	0.76	.
13	Nc1cc2c(cc1C(=O)c1ccccc1F)OCCO2	i	0.5	5.4	3	12	-30	-2	2	0.68	-2.5
14	O=C(NC1CC1)c1cccc(NC(=O)c2cn3ccccc3n2)c1	i	-6.0	1.5	-11	-6.2	.	8	-8	0.66	-3.3
15	COc1ccc(-c2oc3ccc(-c4cc(OC)c(OC)c(OC)c4)cc3c2C#Cc2ccsc2)cc1	i	0.6	-74	1	-8.3	14	14	13	0.7	-2.8
16	COc1ccc(C(=O)NN2C(=O)C3C4C=CC(O4)C3C2=O)cc1 (centres undefined)	.	0.3	-0.7	-2	.	-9	.	.	0.68	.
17	CN1CCc2c(sc3nc(NN)n(-c4ccc(Cl)cc4)c(=O)c23)C1	.	1.5	.	6	.	30	9	5	.	-0.5
18	CS(=O)(=O)N1CCN(c2ccc([N+](=O)[O-])cc2F)CC1	i	0.9	12	.	-1.2	4	7	5	0.64	-0.1
19	CCc1nnc2c(NCCc3ccccc3)nc3ccccc3n12	i	0.2	-1.6	11	-1.7	-3	10	12	0.66	-1.7
20	CC1CCCCC1NC(=O)c1ccc2c(c1)[nH]c(=O)n2C1CCCC1 (centres undefined)	.	-0.4	-1.4	-3	.	7	.	.	0.73	.
21	O=C(CSc1nnc(CNc2ccccc2)o1)c1ccc2c(c1)OCCO2	.	-1.1	3.7	2	.	-10	.	.	0.68	.
22	CCOC(=O)c1cc(-c2ccc(N)cc2)sc1N	.	1.6	2.5	6	.	5	.	.	0.58	.
23	COc1ccc(/C=N/n2c(-c3n[nH]c4c3CCC4)n[nH]c2=S)cc1	i	-0.3	.	1	-3.2	3	.	.	.	.
24	Cc1ccc(S(=O)(=O)N(Cc2ccc(Cl)cc2)c2ccccc2C(=O)NCc2ccco2)cc1	.	-0.8	3.2	8	.	29	.	.	0.7	.
25	COC(=O)c1cc(Br)ccc1NC(=O)CCNC(=O)c1ccco1	i	-1.6	2.2	.	-1.3	-7	-10	-10	0.54	0.5
26	Cc1c(NC(=O)CSc2nc3ccccc3s2)c(=O)n(-c2ccccc2)n1C	.	0.7	-0.3	-5	.	13	.	.	0.71	.
27	CCOc1ccc2ccccc2c1C1NC(=O)NC(C)=C1C(=O)OCCOC (centres undefined)	i	0.1	-5.7	-6	1.4	8	7	9	0.67	-0.1
28	CCC(=O)Nc1nc2c(OC)ccc(OC)c2s1	i	0.6	2.4	-1	6.3	-12	-16*	-21*	0.79	-0.1*
29	Cc1cccc(C(=O)OC(C)CN2CCN(C)CC2)c1 (centres undefined)	.	0.1	6.1	1	1.1	57*	11	11	0.67	-3.0
30	CC1=NCCN1S(=O)(=O)c1ccc(Br)c(C)c1	.	-0.1	5.0	-2	.	-11	.	.	0.69	.
31	O=S1(=O)CCOC[C@H](CC2CCCCC2)N1Cc1ccccc1	i	0.6	5.0	1	-11	10	-3	-9	.	-10
32	Cc1cc(Nc2ccccc2)nc(N2CCN(C(=O)c3ccc4c(c3)OCO4)CC2)n1	i	-0.3	2.0	.	0.8	0	8	3	0.68	-0.7
33	CCOC(=O)C1(Cc2cccc(F)c2)CCN(C(=O)C2CCC2)CC1	i	-0.1	2.1	-7	-1.9	9	6	4	0.7	3.9
34	Cc1ccc(C(=O)NCc2ccco2)cc1S(=O)(=O)N1CCOCC1	.	-0.1	0.1	-8	.	8	.	.	0.72	.
35	CCN1CCN(c2nc3c(c(=O)n(C)c(=O)n3C)n2CCSc2nccc(C)n2)CC1	.	-0.2	1.0	-5	.	-7	.	.	0.7	.
36	O=C(O)CCn1[nH]c(=O)ccc1=O	.	1.3	2.9	-3	.	-3	.	.	0.73	.
37	N#Cc1ccncc1S(=O)c1ccc(Cl)cc1 (centres undefined)	i	-0.3	2.3	-5	2.5	-6	-7	-2	0.68	-1.7
38	CCCN1CCN(C(=O)CCc2nnc3ccc(N4CCN(c5cccc(OC)c5)CC4)nn23)CC1	i	1.5	1.7	4	1.3	-3	12	-3	0.78	2.6
39	CN1CCN(S(=O)(=O)c2cccc(C(=O)N(C)C(c3ccccc3)c3ccccc3)c2)CC1	i	1.1	-1.5	4	5.1	-4	-9	-2	0.65	1.3
40	COCCNC(=O)C(c1ccc(O)cc1)N(Cc1cccs1)C(=O)CCC(=O)Nc1ccccn1 (centres undefined)	i	0.2	2.5	0	7.9	-6	7	0	0.69	-0.3
41	Cc1cc(=O)[nH]c(N/N=C/c2c(F)c(F)c(F)c(F)c2F)n1	i	-0.2	.	-9	-34	-7	5	-3	.	-2.5
42	O=C(Nc1ccc(Oc2ccccc2)nc1)C1CCCCN1Cc1ccc(O)cc1 (centres undefined)	i	0.5	.	.	1.9	12	2	6	.	-1.4
43	CCC(C)(C)NC(=O)C(c1ccc(C)cc1)N(CCN1CCOCC1)C(=O)CNC(=O)c1cccs1 (centres undefined)	i	0.3	0.9	-9	0.9	15	19	8	0.66	2.1
44	CC12CCC(C(=O)Nc3cc(F)ccc3F)(CC1=O)C2(C)C (centres undefined)	i	-0.2	-0.2	-4	-2.3	-7	16	5	0.69	-3.2
45	COc1ccc(CCNC(=O)COC(=O)c2ccc(N3CCCC3=O)cc2)cc1	.	0.3	5.2	-4	-1.2	3	15	5	0.73	0.6
46	Nc1nc(SCc2ccc3c(c2)OCO3)n[nH]1	.	-2.7	-0.3	3	.	-12	.	.	0.72	.
47	N#Cc1ccc(N[C@@H]2CCN3C(=O)c4ccccc4[C@@H]3C[C@H]2O)cc1	i	.	0.5	.	-1.9	.	3	13	0.68	3.6
48	CN(C)/C=N/S(=O)(=O)c1cccn1-c1ncc(C(F)(F)F)cc1Cl	i	0.0	.	5	-4.1	-7	0	-2	.	-1.2

Filtered by structure: the compounds so far containing a furan ring, fused or not.
entry	Molecule	FGF22 binding	A1 inh	UCH37 DUB inh	Beta cell apopt	AF4-AF9 inh	T cruzi repl	Ecoli rRNA inh OD600	Ecoli rRNA inh	E coli growth	Ecoli rRNA inh RFP
9	O=C(c1ccco1)N1CCN(C(c2ccc(Cl)cc2)c2nnnn2Cc2ccccc2)CC1 (centres undefined)	.	1.7	5.2	5	.	-5	.	.	0.69	.
15	COc1ccc(-c2oc3ccc(-c4cc(OC)c(OC)c(OC)c4)cc3c2C#Cc2ccsc2)cc1	i	0.6	-74	1	-8.3	14	14	13	0.7	-2.8
24	Cc1ccc(S(=O)(=O)N(Cc2ccc(Cl)cc2)c2ccccc2C(=O)NCc2ccco2)cc1	.	-0.8	3.2	8	.	29	.	.	0.7	.
25	COC(=O)c1cc(Br)ccc1NC(=O)CCNC(=O)c1ccco1	i	-1.6	2.2	.	-1.3	-7	-10	-10	0.54	0.5
34	Cc1ccc(C(=O)NCc2ccco2)cc1S(=O)(=O)N1CCOCC1	.	-0.1	0.1	-8	.	8	.	.	0.72	.

Carrying on.
entry	Molecule	FGF22 binding	A1 inh	UCH37 DUB inh	Beta cell apopt	AF4-AF9 inh	T cruzi repl	Ecoli rRNA inh OD600	Ecoli rRNA inh	E coli growth	Ecoli rRNA inh RFP
49	Cc1cc2nc(CS(=O)(=O)c3ccccc3)cc(=O)n2[nH]1	i	0.8	2.6	-4	-0.7	-9	17	14	0.64	1.9
50	Cc1c(NS(=O)(=O)c2cccc(C(=O)NCc3cccc(Cl)c3)c2)c(=O)n(-c2ccccc2)n1C	i	.	0.1	.	-3.0	.	6	13	0.65	1.1
51	O=C(NCCCC1CCCC1)C1CCC(=O)N(Cc2cccc(C(F)(F)F)c2)C1 (centres undefined)	i	-0.4	2.7	10	-0.6	-2	-74	-52	0.63	-9.3
52	O=C(CCC(=O)NNc1nc2ccccc2c2nc(-c3ccccc3)nn12)NCCCN1CCCC1=O	i	0.8	1.1	0	-4.0	-11	7	8	0.69	4.9
53	COc1cc2c(cc1OC)/C(=C/C(=O)c1ccc([N+](=O)[O-])c(C)c1)NCC2	i	.	1.1	.	9.7	14	6	-3	0.68	0.5
54	COCCn1c(Cc2ccccc2)nnc1SCc1nc2ccccc2c(=O)[nH]1	.	2.3	4.1	-9	.	-4	.	.	0.73	.
55	Cc1nn(C)c(C(=O)Nc2c(C)nn(Cc3c(F)c(F)c(F)c(F)c3F)c2C)c1Br	i	1.8	3.2	8	-1.2	.	6	-4	0.7	0.5
56	O=C(OCCN1CCOCC1)C1(c2ccccc2)CCCCC1	i	0.3	3.6	.	-0.1	-5	.	.	0.69	.
57	CCc1nc(SCC(=O)NC2CCCC2)c2oc3ccccc3c2n1	i	0.6	5.1	.	-0.6	-14	7	10	0.73	-0.5
58	CNC(=S)NNC(=O)c1oc2nc(-c3ccccc3)cc(C)c2c1N	i	0.6	-101	7	.	-25	11	9	0.67	-1.2
59	Cc1ccccc1C(NC(N)=O)c1ccccc1 (centres undefined)	i	-0.1	-2.1	-6	-29	-6	3	0	0.65	-4.1
60	COc1ccc(CNc2oc(COc3ccccc3Cl)nc2C#N)cc1	.	0.0	4.6	6	.	34	.	.	0.73	.
61	COc1ccc(CC(=O)Nc2cc(S(=O)(=O)N3CCOCC3)ccc2N2CCCC2)c(OC)c1	i	.	1.6	.	4.5	.	-2	-11	0.7	3.5

The list is partial, so the mix of outcomes need not match the whole.
